# From PubChem BioAssay
# CSC inhib = cancer stem cell inhibition; cancer stem cell-like cells viability, luminescence; inhibition, % at 7.5 µM; actives 1.1% (n = 300,000); AID 2717;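 active = mean at 75% or more and at least half the replicates too; inconclusive = mean and replicates disagree; tested in HMLE shEcad cells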;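 also: 0% = median of negative and 100% = median of positive control wells; the first replicate is given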
# Yeast UUG start = modulators of start codon recognition fidelity in yeast. activity score, % at 18.7 µM. actives 0.13% (n = 350,000). AID 602363. S. cerevisiae UUG-firefly luciferase reporter, luminescence/redox ratio;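 active = replicate mean at a twofold rise or more, about +100% in these data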;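 also: firefly luciferase made from a UUG start codon reports start codon fidelity; reporter light over untreated wells divided by growth signal over untreated wells; some hits fall short of that in this replicate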
# eIF4H FP inh = inhibitors of RNA binding by human eIF4H. eIF4H fluorescence polarization binding assay. inhibition, % at 35 µM. actives 0.94% (n = 290,000). AID 2012;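 active = 50% or more with normal probe brightness, or confirmed in later tests; inconclusive = above 50% with abnormal brightness, or retests that disagree; inactive = below 50% or failed in later tests; about a fifth of its hits are not listed in these tables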;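 also: calls also rest on retests at 20 µM and on dose response follow-up; 0% = protein and probe with vehicle and 100% = probe without protein; strong numbers were not always called active; many hits fall short of the cut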
# HIV Env fusion = blocks HIV Env-driven cell-cell fusion | actives 1.1% (n = 360,000) | inhibition, % at 12.3 µM | HeLa-JRFL Env/CEM21 cell fusion, luciferase | AID 651610;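 active = mean replicate inhibition score of at least 50 and every replicate individually at or above 50; inconclusive = only one of the two criteria met; inactive = mean below 50 and not all replicates reaching 50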;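 also: 0% = plate neutral controls and 100% = maraviroc near 300 nM; one replicate is shown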
# MT1-MMP act inh = MT1-MMP (human) activation inhibition | P50281 | HT1080 RFP-PRO-GFP cells, GFP/RFP ratio fluorescence, overnight; percent of plate control window, DMSO zero | GFP/RFP ratio change, % at 20 µM | actives 0.061% (n = 360,000);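 active = GFP/RFP ratio change of at least 30% with cell ATP level not reduced by more than half and red fluorescence within 50% of control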; also: strong numbers were not always called active
#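 Assay system: HT1080 RFP-PRO-GFP cells | Dosing: 20 µM single dose, 1% DMSO | Incubation: Cells overnight before dosing, compound overnight, 37 °C, 5% CO2 | Evaluation: GFP/RFP fluorescence ratio | Control set: DMSO-only wells and HT1080 RFP-L50D-GFP cell wells as references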
# Rce1 inhib = inhibitors of yeast Ras-converting enzyme. yeast membranes, quenched prenylated peptide cleavage fluorescence. calls only. actives 0.27% (n = 290,000);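 active = fall in fluorescence gain of 50% or more versus controls, with final raw signal at or below 3038400; inconclusive = same 50% fall but final raw signal above 3038400; inactive = fall in fluorescence gain under 50%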;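 also: plate controls were neutral control wells for no effect and wells lacking membranes for full effect; tested at 10 µM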
# Target sequence (Q03530 whole entry, looked up): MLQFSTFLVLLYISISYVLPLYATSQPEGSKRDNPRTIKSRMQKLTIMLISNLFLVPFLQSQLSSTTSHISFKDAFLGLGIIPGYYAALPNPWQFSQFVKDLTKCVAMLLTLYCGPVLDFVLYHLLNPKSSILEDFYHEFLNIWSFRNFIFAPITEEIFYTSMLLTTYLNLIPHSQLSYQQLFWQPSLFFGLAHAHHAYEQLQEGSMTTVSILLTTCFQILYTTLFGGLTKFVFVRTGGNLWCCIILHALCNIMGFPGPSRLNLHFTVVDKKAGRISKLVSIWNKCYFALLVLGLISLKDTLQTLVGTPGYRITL
# PABP FP inh = blocks human PABP binding to poly(A) RNA. P11940. fluorescence polarization. inhibition, % at 35 µM. actives 1% (n = 290,000);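 active = 50% or more with normal probe brightness, or confirmed in later tests; inconclusive = above 50% with abnormal brightness, or retests that disagree; inactive = below 50% or failed in later tests; about a fifth of its hits are not listed in these tables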;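 also: calls also rest on retests at 20 µM and on dose response follow-up; controls were probe without protein and protein plus probe with vehicle; some compounds called inactive have numbers as strong as hits; many hits fall short of the cut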
# Target sequence (P11940 whole entry, looked up): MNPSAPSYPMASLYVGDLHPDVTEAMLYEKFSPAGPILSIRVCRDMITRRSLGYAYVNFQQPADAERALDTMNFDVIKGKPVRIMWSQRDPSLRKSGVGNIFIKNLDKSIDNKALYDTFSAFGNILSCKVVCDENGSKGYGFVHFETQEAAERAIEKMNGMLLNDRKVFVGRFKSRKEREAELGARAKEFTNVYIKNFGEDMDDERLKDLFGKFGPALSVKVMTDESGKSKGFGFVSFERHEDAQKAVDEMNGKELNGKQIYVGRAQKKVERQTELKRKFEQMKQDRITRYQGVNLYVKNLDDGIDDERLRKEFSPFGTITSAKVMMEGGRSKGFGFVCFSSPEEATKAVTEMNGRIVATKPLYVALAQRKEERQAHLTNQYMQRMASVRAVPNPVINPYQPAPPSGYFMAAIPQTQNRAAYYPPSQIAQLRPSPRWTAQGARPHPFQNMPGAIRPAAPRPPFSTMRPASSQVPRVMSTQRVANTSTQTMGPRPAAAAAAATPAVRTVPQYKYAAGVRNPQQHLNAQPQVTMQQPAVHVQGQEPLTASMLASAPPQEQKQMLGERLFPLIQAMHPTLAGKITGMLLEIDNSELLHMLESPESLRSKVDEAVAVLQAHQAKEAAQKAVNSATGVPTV
# MT1-MMP act inh RFP = further read-out of MT1-MMP act inh, marked with its call; RFP signal change, %; measured here: RFP expression control read;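 0 = vehicle wells; hits needed this value within 50% of zero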
# The depositor's hits bear a star; i = inactive; ? = inconclusive; · = no result given; & = joins results of further samples; [ ] = another dose, or the depositor's remark. Some of the compounds tested; rates above refer to the full screens.
SMILES,CSC inhib,Yeast UUG start,eIF4H FP inh,HIV Env fusion,MT1-MMP act inh,MT1-MMP act inh RFP,Rce1 inhib,PABP FP inh
COc1cccc(C(O)c2nc3ccccc3n2C)c1 (configuration not stated),-9,-21,-4,23,-1,-2,i,5
COc1ccc(Nc2nc3nonc3nc2N2CCCCC2)cc1,-19,-25,12,-10,5,-7,i,9
CC(C)CCN(C(=O)c1ccc(N2CCCC2=O)cc1)c1c(N)n(Cc2ccccc2)c(=O)[nH]c1=O,-7,-7,·,2,4,2,·,·
O=C(COC(=O)c1n[nH]c2ccccc12)c1cc(F)ccc1F,9,·,-15,-11,0,-3,i,38
CCOC(=O)COc1cccc2c(=O)n(CC(=O)N3CCCc4ccccc43)ccc12,-6,-8,-5,-3,10,8,i,4
COc1ccc(CCC(=O)OCC(=O)Nc2c(C)n(C)n(-c3ccccc3)c2=O)cc1,·,11,·,-3,-2,0,·,·
N#CC(=C1NC(=O)c2ccccc21)c1nc2ccccc2n1CCO,·,-8,·,9,0,0,·,·
COc1ccc2[nH]c3ccc(OC)cc3c2c1,-8,15,-1,-16,13,-2,i,-1
CN(C)S(=O)(=O)c1cccc(C(=O)OCC(=O)N2CCCC2=O)c1,·,-18,-7,-10,-1,1,i,7
COc1ccc(C(CNC(=O)Cc2c(F)cccc2Cl)N2CCCCC2)cc1 (configuration not stated),-9,-12,-5,1,3,3,i,-4
COc1ccc(-c2onc(C)c2-c2ccccc2)c(O)c1,-10,-23,-10,-117,-12,-19,i,-8
CC(=O)c1ccc(OCc2cc(C(=O)N3CCCCC3c3cccnc3)no2)cc1 (configuration not stated),-16,-14,-8,-7,4,-9,i,0
Cc1onc(-c2ccccc2)c1C(=O)N/N=C/c1cccc(O)c1,-15,·,6,16,-1,-2,i,-8
CCN(C(=O)CN1C(=O)COc2ccc(S(=O)(=O)N3CCCCCC3)cc21)c1cccc(C)c1,-12,19,-11,23,-7,-8,i,0
COc1cc(C(=O)NCCCn2ccnc2)cc(OC)c1OC,-9,·,4,4,-2,6,i,-5
N#CC(c1nc2ccccc2nc1N1CCCC1)S(=O)(=O)c1ccccc1 (configuration not stated),-7,-14,?,16,-38,14,i,?
Cc1ccc(-c2ccc(/C=N/NC(=S)Nc3ccccc3)o2)cc1[N+](=O)[O-],2,-8,5,17,14,-3,i,-3
CN1CCN(C(c2cccc(C(F)(F)F)c2)c2nnnn2C(C)(C)C)CC1 (configuration not stated),-7,-6,-4,·,1,-2,i,6
O=C(Nc1cccc2ncccc12)c1ccccc1Cl,9,-11,·,-13,-3,1,i,·
COc1cccc(C(=O)COC(=O)c2ccc(NC(=O)c3ccccc3)cc2)c1,-12,-12,·,1,0,-6,i,·
COc1ccc(C(=O)/C=C/Nc2cc(C)on2)cc1,-9,-7,-7,·,1,-1,i,0
CCCCCn1c(=O)[nH]c2cc(C(=O)N3CCN(CC)CC3)ccc2c1=O,-13,-7,0,6,0,-7,i,6
Cc1cc(Oc2ccccc2)nc(N)n1,-14,-19,3,-26,1,4,i,-7
Cc1noc(C)c1-c1nc(CSc2ccc(Cl)cc2)no1,-2,·,6,-3,-2,1,i,11
Cn1c(Cn2c(=O)sc3ccccc32)nnc1SCC(=O)Nc1ccccc1F,-7,-13,2,6,1,-1,i,5
Cc1ccccc1NC(=O)COc1ccccc1C,-5,-14,-9,-34,-4,-1,i,6
Cc1ccc(-n2cc(CN(C)Cc3nccn3C)c(-c3cccc(C)c3)n2)cc1,-8,·,-3,17,-2,-4,i,-6
CCOC(=O)c1cc(C#N)c(Oc2ccccc2)nc1-c1ccccc1,16,·,-7,·,-4,-4,i,17
CCN1CCN(CCNC(=O)c2ccc3c(c2)N(Cc2ccc(F)cc2)C(=O)/C(=C/c2ccccc2)S3)CC1,103*,-14,-6,4,-6,-8,i,-2
C=CCN1C(=O)S/C(=C\c2ccc(N3CCOCC3)cc2C)C1=O,1,-14,-10,-91,-10,-4,i,-10
COC(=O)C(C)NC(=O)C12CC3CC(C1)CC(c1ccc(C)cc1)(C3)C2 (configuration not stated),2,-6,-12,4,1,-1,i,-1
Fc1ccc2[nH]c3c(N4CCc5ccccc5C4)ncnc3c2c1,?,-9,-9,42,3,-32,·,2
O=C(c1ccccc1F)N1CCN(c2ncccn2)CC1,-3,-3,-2,1,-10,2,·,-10
CCN(CC(=O)NC1CCS(=O)(=O)C1)S(=O)(=O)c1cc(Br)ccc1Br (configuration not stated),-3,·,·,·,1,2,i,·
COc1cccc2cc(CC(=O)c3ccc(C)c(C)c3)c(=O)oc12,-2,-13,8,-10,4,-1,i,10
COc1cc(NC(=O)CN2C(=O)C(=O)N(C3CCCC3)C2=O)cc(OC)c1,-3,-13,·,·,-4,-3,·,·
Cc1ccccc1-n1nnnc1SCc1ncc(-c2ccccc2)o1,-8,6,-6,-67,1,0,i,1
Cc1nc(NC(=O)CN2CCCCC2)sc1C(=O)N(C)C,12,-16,27,-16,4,3,i,-13
OCCC1CN(Cc2cnc(-c3cccc4ccccc34)nc2)CCN1C1CCCCC1 (configuration not stated),9,·,1,-12,1,0,i,-6
COc1ccc(CCNC(=O)CSCC(=O)Nc2ccccc2)cc1OC,·,-12,-4,-5,8,-1,i,-14
CCCOc1ccc(Cn2c(=O)oc3ccc(C)cc32)cc1OC,7,-14,-4,7,1,0,i,-11
Cn1c(=O)c2c(nc(CN3CCc4ccccc4C3)n2Cc2ccccc2F)n(C)c1=O,-2,18,-2,·,-2,-1,i,0
O=C(Nc1ccccc1)N(CCCN1CCOCC1)Cc1cccs1,-2,-28,-10,14,0,5,i,0
Cc1ccccc1NC(=S)NCc1ccco1,-18,-18,-2,4,1,3,i,6
COc1cc2[nH]c(=O)n(Cc3ccc(C(=O)NCC4CCCO4)cc3)c(=O)c2cc1OC (configuration not stated),-8,-1,-10,13,6,4,i,-7
C=CCn1c(Cc2csc(N)n2)nnc1SCC(=O)Nc1ccccc1C(F)(F)F,-2,-19,-2,15,-3,2,i,3
CC1C=CCC2C(=O)N(c3ccc(Cl)cc3O)C(=O)C12 (configuration not stated),-3,·,7,-142,-5,-1,i,5
CCOC(=O)C1(C)CCN1C(=O)c1ccc(OC)c(C(F)(F)F)c1 (configuration not stated),·,-17,·,-143,4,1,·,·
CC(C)NC(=O)Nc1cccc2c1O[C@H](CN(C)C(=O)Nc1ccc(C(F)(F)F)cc1)[C@@H](C)CN([C@H](C)CO)C2=O,·,15&-8,·,16[16.7 µM],1,2,·,·
CN(C)c1cccc(CNC(=O)c2ccc3nc([C@@H]4O[C@H](CO)[C@H](O)[C@H](O)[C@H]4O)[nH]c3c2)c1,·,-7,·,-13,0,4,·,·
Cc1ccccc1-c1nnc(SCC#N)o1,-18,·,-6,11,-2,1,i,-8
COC(=O)c1ccccc1NC(=O)c1cc2nc(C3CC3)cc(C(F)(F)F)n2n1,21,·,32,-31,1,3,i,-3
C/C(=N\NC(N)=O)c1ccccc1Cl,-2,-16,106*,-25,-2,0,i,60*
COc1ccc(Cl)cc1NC(=O)CN(C)CC(=O)NCc1cccs1,-2,2,·,4,0,1,·,·
O=C(Nc1ccccc1Cl)c1ccc2c(=O)n3c(nc2c1)CCC3,·,-22,·,-98,1,2,·,·
CN1C(=O)c2cccc3c(Cl)ccc(c23)C1=O,5,-17,0,-105,-27,-2,i,9
CC(C)=NNc1nc2c(c(=O)[nH]c(=O)n2C)n1CCCc1ccccc1,0,-3,22,10,-5,0,i,6
O=C(c1ccccc1)c1ccc(N2CCCC2)cc1,-17,5,-5,-154,-1,0,i,-4
Cc1nc2sccn2c(=O)c1S(=O)(=O)Nc1ccc(N2CCOCC2)c(Cl)c1,·,3,-7,39,-4,-19,i,13
Cn1c(SCC(=O)NC(C)(C)C)nc(O)cc1=O,-5,-9,-19,·,3,0,i,8
# Next part.
SMILES,CSC inhib,Yeast UUG start,eIF4H FP inh,HIV Env fusion,MT1-MMP act inh,MT1-MMP act inh RFP,Rce1 inhib,PABP FP inh
Cc1ccc(-c2cc([C@H]3[C@@H]4C=CCC[C@@]4(C)C(=O)N3Cc3ccccc3)ccc2F)cc1,111*,-22,-9,46,6,-3,i,-11
Cc1cccc(C)c1N(CC(=O)N1CCN(C)CC1)S(C)(=O)=O,0,-8,-4,6,4,-4,i,0
Oc1ccc(Oc2ncc(Cl)cc2Cl)cc1,-2,-13,-3,-7,1,1,i,-12
COc1cc(/C=N/NC(=O)NC23CC4CC(CC(C4)C2)C3)ccc1OCC(N)=O,-3,12,-9,-2,-2,1,i,-3
COc1ccc(C2C=C(c3ccccc3)Nc3ncnn32)cc1 (configuration not stated),14,·,16,·,-9,-1,i,13
O=C(CSCc1ccc(Cl)cc1Cl)Nc1c[nH]c(=O)[nH]c1=O,-11,-16,2,12,-1,-2,i,21
COc1ccc(-c2nn(-c3ccccc3)cc2C=O)cc1[N+](=O)[O-],48,-3,-7,-22,7,-2,i,1
CCOc1ccc(NC(=S)N2CCC(C(=O)c3ccc(OC)cc3)CC2)cc1,·,-14,·,-2,-2,0,·,·
Cc1ccc(Nc2n[nH]c(=S)s2)cc1C,·,-16,·,-34,-1,1,·,·
CCOc1ccc(Cl)cc1S(=O)(=O)N1CCC(C(=O)NC2CC2)CC1,-11,3,-2,-21,-1,0,i,-10
C=CCCc1ccc(C#N)c(SCc2c(C(=O)OCC)c3cc(OC(C)=O)c(Br)cc3n2C)n1,1,-31,-10,·,-17,-31,i,13
CC1(C)OC(=O)N2CCc3ccccc3C21C (configuration not stated),-10,-15,-12,-9,1,3,i,-1
COc1nc(Nc2cccc([N+](=O)[O-])c2)nc(OC)n1,-12,·,-11,-31,-3,-4,i,2
Oc1ccc(-c2nc3ccccc3s2)cc1,25,·,-4,-140,-2,0,i,-8
Cc1cccc(NC(=S)Nc2cccc(C(F)(F)F)c2)n1,-6,-23,-9,-59,-6,-5,i,-3
O=C(Nc1ncn[nH]1)c1c(Cl)ccc(Cl)c1Cl,6,-13,9,-165,8,4,i,42
CCOc1ccc(NC(=O)c2ccc(S(=O)(=O)N(C)C)cc2)cc1,-9,-12,-6,12,3,0,·,-3
O=S(=O)(Nc1ccc(Br)cn1)c1cccs1,-3,-9,-19,0,0,3,i,-5
CC/C(=N/NC(=O)c1ccccc1O)c1c(C)[nH]n(-c2ccccc2)c1=O,81*,-34,·,12,-1,1,i,·
O=C(Nc1ccccc1C(=O)Nc1ccncc1)c1ccc([N+](=O)[O-])cc1,-3,-12,9,-3,0,0,i,10
COc1ccccc1NS(=O)(=O)c1cc(C(=O)N2CCCCCC2)ccc1C,-12,-8,·,·,0,-6,·,·
CCC(C)(C)NC(=O)CSc1nc(Cc2ccccc2)nc2ccccc12,7,-7,-9,9,-7,-15,i,-1
CCOCCCNC(=O)C(NC(=O)c1ccccc1O)c1ccc(Cl)cc1 (configuration not stated),-9,0,-3,·,-1,-1,i,-13
O=C(Cn1c(=O)n(-c2ccccc2)c(=O)c2oc3ccccc3c21)Nc1ccccc1,-4,-2,-12,·,4,-1,i,-9
COc1cc(NC(=O)c2cccnc2)ccc1NC(=O)c1ccccc1Cl,-9,-25,0,-5,-1,0,i,18
O=C(CCN1CCN(c2ccc(Cl)cc2)CC1)Nc1nccs1,1,·,-8,23,1,-4,i,0
Cc1cc(C)nc(OC(=O)c2c(Cl)cc(Cl)cc2Cl)n1,10,·,-2,-5,2,1,i,-5
